miR-21 reporter – raises the signal of a miR-21 reporter | 340,000 tested, under 10 active | Potency, µM (highest dose often 38.3 µM), for the others: at the highest dose reporter change, positive = more light | HeLa miR-21 FLuc reporter, luciferase, 48 h | AID 2288; active = well fitted rising curve with a large enough effect; inconclusive = small, poorly fitted or top-dose-only effect; inactive = no such curve, though single readings can be large or run the other way;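 note: % of control where 0% means no effect; miR-21 action dims this reporter so a rising signal means less miR-21 action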
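Compounds were titrated across several concentrations (up to approximately 40 uM) and incubated 48 hours with HeLa miR-21-FLuc reporter cells (miR-21 target sequence downstream of FLuc, endogenous miR-21). Readout was firefly luciferase luminescence after lytic detection reagent.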
Rango-impB inh – prevents formation of the Rango-importin beta complex. Rango CFP/YFP FRET sensor + importin beta, 45 min. Potency, µM (doses to about 92.2 µM), without a hit: top-dose inhibition of complex formation. 340,000 tested, 0.031% active; active = rising FRET ratio curve, often small or poorly fitted; inconclusive = mostly compound fluorescence or quenching in the first reads; inactive = flat curves in all reads;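 note: potency is the fitted concentration of half-maximal effect; 0% = DMSO wells and 100% = buffer wells lacking importin beta; nearly all actives have a fitted effect of over 15% in size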
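Inhibition scored from the CFP 486 nm/YFP 530 nm FRET ratio 45 min after adding 0.125 microM importin beta to 50 nM Rango biosensor preincubated 5 min with compound (room temperature, PBS with DTT, Tween-20, BSA). No-importin wells as positive control.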
Rango release inh – inhibition of RanGTP-driven Rango-importin beta dissociation; O95149+P62826; Biochemical FRET Rango-importin beta, RanGTP-induced dissociation; Potency, µM (top dose mostly 46.1 µM), without a hit: top-dose activity change, negative = inhibition; 340,000 tested, 0.071% active; AID 540253; active means falling FRET ratio curve, often poorly fitted, with flat reads before Ran was added; inconclusive means other falling curves, or compound fluorescence or quenching; inactive means flat or rising ratio curve;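 note: potency is the fitted concentration of half-maximal effect; % of control where 0% means no effect; nearly all actives have a fitted effect of over 45% in size; -100% = wells without RanGTP and RCC1; the record marks most hits as doubtful in a second field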
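Rango (0.1 uM)–importin beta (0.25 uM) complex; RanGTP-RCC1 trigger; 45 min RT; CFP/YFP FRET read.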
GLA inh pH 4.5 – inhibitors of human alpha-galactosidase A at pH 4.5; AID 1467; purified enzyme, 4-MU-alpha-Gal fluorescence, pH 4.5; 230,000 tested, under 10 active; activity change, negative = inhibition, % at 105 µM; inconclusive = small, poorly fitted or top-dose-only inhibition, or a rising curve; inactive = flat fitted curve, though single readings scatter; no compound was filed as active;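 note: 0% = full activity with enzyme and -100% = basal without enzyme; dose as in the result columns while the protocol names 77 µM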
Target sequence (P06280 whole entry, looked up): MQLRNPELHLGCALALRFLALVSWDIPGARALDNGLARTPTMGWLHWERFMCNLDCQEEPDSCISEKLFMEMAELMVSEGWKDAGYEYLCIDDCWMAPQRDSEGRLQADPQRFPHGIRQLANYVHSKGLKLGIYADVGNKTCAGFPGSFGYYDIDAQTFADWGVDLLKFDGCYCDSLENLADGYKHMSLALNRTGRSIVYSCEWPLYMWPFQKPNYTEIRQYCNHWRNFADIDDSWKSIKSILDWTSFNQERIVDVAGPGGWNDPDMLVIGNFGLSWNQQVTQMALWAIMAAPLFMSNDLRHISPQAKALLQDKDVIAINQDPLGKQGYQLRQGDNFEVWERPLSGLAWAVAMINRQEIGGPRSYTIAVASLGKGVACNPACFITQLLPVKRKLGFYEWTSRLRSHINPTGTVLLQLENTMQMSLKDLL
Starred values were filed as active, the others as inactive; ? = inconclusive; / = not tested or not shown; & = joins results of further samples. Some of the compounds tested; count on the stated rates, not on these rows.

structure,miR-21 reporter,Rango release inh,GLA inh pH 4.5,Rango-impB inh
CC(C)N1CCN(Cc2c[nH]c3ccccc23)CC1CCO (configuration not stated),-1.1%,4.8%,/,-1.5%
CC(C)Sc1nnc(OC(=O)N(C)C)n1-c1ccccc1,-10.2%,-1.3%,6.4,0.0%
Cc1ccccc1N1CCN(Cc2ccc3c(c2)OCO3)CC1,-3.0%,-7.6%,/,0.4%
COc1ccc(/C=C2\C(=O)NC(=O)N(CCC3=CCCCC3)C2=O)c(OC)c1,3.7%,21.9%,0.9,-0.8%
C=C(Cl)CSC(=S)N(CC)CC,/,15.9%,/,-0.1%
CCC(C)NC(=O)CCC(=O)OC1O[C@H]2OC3(C)CC[C@H]4[C@H](C)CCC(C1C)C24OO3 (some centres not stated),?,-1.3%,/,-1.4%
COc1ccc(/C=C2\C(=O)NC(=O)N(Cc3ccccc3)C2=O)c(OC)c1OC,0.5%,5.9%,-2.0,-0.9%
CCOCCc1c(O)[nH]c(=S)[nH]c1=O,-0.1%,5.2%,0.7,1.0%
CCOCCN1CCC(OC(C)=O)C(C)C1 (configuration not stated),0.4%,1.2%,6.6,-2.6%
CSCCC(N=Cc1c(O)n(-c2ccc(Cl)cc2)c(=O)[nH]c1=O)C(=O)OC(C)(C)C (configuration not stated),-8.2%,2.5%,5.9,2.9%
Cc1ccc(/C=C2\C(=O)NC(=S)N(c3ccccc3F)C2=O)s1,25.9%,?,3.0,?
COc1ccc2c(c1)NP(=S)(Oc1ccccc1)N2 (configuration not stated),-59.9%,?,6.9,?
Clc1cccc(CNCCc2ccc3c(c2)OCO3)c1,-18.3%,4.4%,/,0.1%
CC1(C)CC2(CCO1)NCCN1C(=O)CSC12 (configuration not stated),-4.5%,0.1%,12.8,0.4%
O=C(O)CC1OCC=C2CN3CCC45c6ccccc6NC4C1C2CC35 (configuration not stated),-1.3%,-0.9%,6.4,-2.8%
COc1ccccc1CN1CCCCC1c1cccnc1 (configuration not stated),-3.9%,-1.0%,/,-1.0%
CN1C[C@@H]2C[C@@H](c3cccn3-c3ccccn3)N3CCC[C@@]23C1=O,-1.6%,-26.1%,0.0,-0.3%
CCCCn1c(O)c(/C(C)=N/NC(=O)Nc2ccccc2)c(=O)[nH]c1=O,-64.7%,-6.9%,1.2,-2.9%
C=CCc1cc(C)ccc1OCCCC(C(=O)OCC)C(=O)OCC,-1.7%,-3.3%,-9.6,0.7%
CC(=O)OC1N=C(c2ccccc2Cl)c2cc(Br)ccc2NC1=O (configuration not stated),-1.5%,5.3%,-4.2,-0.1%
CCOc1cccc(C2NCc3ccccc3-n3cccc32)c1O (configuration not stated),0.2%,-16.3%,-3.5,-0.3%
CC(C)C[C@H](NP(=O)(O)O[C@@H]1O[C@@H](C)[C@H](O)[C@@H](O)[C@H]1O)C(=O)N[C@@H](Cc1c[nH]c2ccccc12)C(=O)O,/,3.8%,/,-5.7%
CCc1ccc(OCCCN=C(C)c2c(O)n(C)c(=O)n(C)c2=O)cc1,5.5%,-7.1%,-0.3,-0.5%
Cc1cc(OCC(=O)NCc2ccc(S(N)(=O)=O)cc2)c2c3c(c(=O)oc2c1)CCC3,-3.7%,24.6%,/,-2.6%
COc1ccc(CN2Cc3cnnn3-c3ccccc3C2c2ccccc2)cc1 (configuration not stated),/,17.3%,/,?
Cc1nc2cc(C(F)(F)F)ccc2n1C1CCN(Cc2nnnn2Cc2cccs2)CC1,-4.5%,-9.5%,-3.1,-2.4%
CN1CCN(CC(=O)Nc2ccc(Cl)cc2C(=O)c2ccccc2)CC1,-1.1%,1.1%,-3.8,-0.3%
C[C@]12CCC3[C@@H](CCC4=CC(=O)CC[C@@]43CO)C1CCC2=O (some centres not stated),-4.0%,-12.7%,/,-0.1%
CN1CCC(O)(c2cccs2)C(C(=O)c2cccs2)C1 (configuration not stated),-2.2%,4.3%,/,1.7%
C[C@]12CCC(=O)C[C@H]1CC[C@@H]1[C@@H]2CC[C@]2(C)C(=O)CC[C@@H]12,/,2.3%,/,1.4%
COC(=O)C1=C(c2ccccc2OCc2ccccc2)C[C@@H]2CC[C@H]1N2C(=O)NCc1ccc(F)cc1,/,-22.4%,/,4.1%
CN1Cc2ccccc2-n2nncc2C1,/,?,/,-0.1%
O=c1[nH]c(=O)n(Cc2ccccc2)c(O)c1C=NCCCO,-8.6%,2.4%,-2.1,0.9%
CC(C)CCNC(=O)c1c(N)n(CC2CCCO2)c2nc3ccccc3nc12 (configuration not stated),8.1%,?,16.4,?
O=C(c1ccco1)c1cn(Cc2ccccc2)c2ccccc12,-35.1%,-3.6%,-1.9,-0.1%
CCCCn1c(N)c(N(CCOC)C(=O)CN2CC=C(c3ccccc3)CC2)c(=O)[nH]c1=O,3.6%,-18.4%,-0.5,?
CCN(CC)C(=O)c1ccc2c(c1)C1C=CCC1C(C(=O)O)N2 (configuration not stated),10.3%,?,/,?
CCCCNC(=O)/C(C#N)=c1\s/c(=C\c2ccccc2OC(F)F)c(=O)n1CCCOC,-2.6%,?,0.6,-3.4%
Cc1nn(Cc2ccc(Cl)cc2Cl)c(Cl)c1C(=O)O,0.9%,3.8%,8.1,-0.6%
CCCCS(=O)(=O)N1CCN(C(=N)N[N+](=O)[O-])CC1,-2.4%,-18.5%,2.8,0.5%
Cc1cccc(CSc2nc3c(cc2C#N)CN(C)CC3)c1,-13.2%,-6.1%,-0.7,-0.1%
COc1ccc(-n2c(=O)[nH]c3ccccc3c2=O)cc1,-16.0%,-2.2%,1.4,0.1%
CCOc1ccc(S(=O)(=O)NCc2ccc3c(c2)OCO3)cc1C,-2.4%,-13.9%,/,1.3%
Cn1cc(/C=C2\C(=O)NC(=O)N(c3ccccc3)C2=O)c2ccccc21,2.2%,6.8%,/,3.1%
O=C1NC(=O)C2=Cc3ccc(O)cc3OC2(O)N1 (configuration not stated),-0.2%,/,-1.8,/
Cc1ccc(-n2c(O)c(C=Nc3ccccc3N)c(=O)[nH]c2=O)cc1C,-46.5%,-16.1%,5.7,5.0%
CC(Cc1ccccc1)/[N+]([O-])=C\c1ccc(C(F)(F)F)cc1 (configuration not stated),/,-0.6%,/,0.5%
O=C(COc1ccccc1)N1CCN(C2CC3CCC2C3)CC1 (configuration not stated),-8.1%,3.9%,1.3,2.5%
O=c1[nH]cnc2nc(-c3ccc(N(CCCl)CCCl)cc3)[nH]c12,/,-12.5%,/,-1.9%
COc1c(O)ccc2c1-c1c3c(cc4c1C(C2)N(C)CC4)OCO3 (configuration not stated),0.4%,-26.8%,-5.0,?
CC(=O)c1c(C)n(Cc2ccccc2Cl)c2ccc(O)cc12,-12.6%,-25.3%,-16.1,-1.4%
Cc1cc(N2CCOCC2)ccc1/C=C1\C(=O)NC(=O)N(c2ccccc2)C1=O,-6.2%,-18.3%,-8.7,?
Cn1c(O)c(N=Nc2cccc(S(=O)(=O)N3CCOCC3)c2)c(=O)n(C)c1=O,1.9%,-18.7%,-8.9,-3.4%
O=C1NC(=O)N(c2ccccc2)C(=O)/C1=C/c1ccoc1,1.8%,?,-2.4,?
Clc1ccc(COC(Cn2ccnc2)c2ccc(Cl)cc2Cl)cc1 (configuration not stated),26.8%,3.0%,-22.4,4.0%
O=C(O)Cn1cc(/C=C2\C(=O)NC(=O)N(Cc3ccco3)C2=O)c2ccccc21,-0.8%,?,6.4,?
C/C(=N\Nc1ccccc1)c1c(O)n(-c2ccccc2)c(=O)[nH]c1=O,10.3%,-9.2%,-10.5,-1.9%
Nc1ncn[nH]1,/,-10.3%,2.2,0.4%
O=C(Nc1ccc(F)cc1F)c1cccn(Cc2ccccc2)c1=O,-3.5%,-0.7%,-4.0,0.4%
Cc1cc(Cl)ccc1C(=O)C1CCCN(Cc2ccon2)C1 (configuration not stated),-1.3%,4.8%,0.7,1.8%

Next entries:
structure,miR-21 reporter,Rango release inh,GLA inh pH 4.5,Rango-impB inh
O=c1[nH]c(=S)n(CCC2=CCCCC2)c(O)c1/C=N/N1CCOCC1,3.6%,?,-7.9,?
Cc1nc2ccccc2c(=O)n1-c1ccccc1C(F)(F)F,-1.1%,-5.8%,-1.1,2.6%
CCOC(=O)CSCCOc1ccc(C=C2C(=O)NC(=O)NC2=O)cc1OC,-0.7%,1.0%,3.0,0.6%
CC(=NCCN1CCCCC1)c1c(O)n(-c2ccccc2)c(=O)[nH]c1=O,-1.4%,1.5%,6.7,4.7%
C[n+]1ccc(-c2ccccc2)c2ccccc21,/,14.0%,/,-0.8%
CCCCC1(CN2CCCC2=O)C(=O)NC(=O)NC1=O,0.1%,7.4%,-20.5,-1.2%
COc1ccc(C(=O)c2nc3ccccc3n2C(C)C)cc1,-2.7%,9.9%,7.1,?
Cc1ccnc(-n2c(-c3ccccc3)nc3ccccc3c2=O)c1,-5.5%,-0.2%,-3.2,?
COc1ccc(C(=O)C2CCCN(C3CSCCSC3)C2)c(OC)c1 (configuration not stated),3.9%,-9.7%,-0.6,-5.5%
COP(=O)(/C=C(\Cl)c1ccccc1)/C=C(\Cl)c1ccccc1,-6.7%,-15.0%,/,-0.2%
O=P1(Oc2ccccc2)OCCCS1 (configuration not stated),29.3%,-2.7%,4.0,3.3%
CCN(CC)CCCC(C)N=C(c1ccccc1)c1c(O)n(C)c(=O)n(C)c1=O (configuration not stated),-14.6%,-11.7%,5.3,-1.1%
Cc1ccc2c(c1)C1CN(C)CCC1N2C(=O)Cn1cnc2c1c(=O)n(C)c(=O)n2C (configuration not stated),-4.9%,20.0%,-5.0,5.8%
CN(C)c1ccc(CN2CC=C(c3ccc(F)cc3)CC2)cc1,-4.2%,-16.2%,-1.6,-1.4%
O=c1[nH]c(=S)n(-c2cccc(Cl)c2)c(O)c1/C=N/N1CCOCC1,0.5%,?,6.7,?
c1ccc(C2CC3CC4(CCCC4)N2O3)cc1 (configuration not stated),5.8%,0.4%,8.1,-6.0%
O=C(CCc1nc(-c2ccccc2F)no1)N1CCC2(CC1)OCCO2,-6.1%,5.3%,3.8,0.3%
Cc1nn(C2CCOC(C)(C)C2)c2c1C(c1ccc3c(c1)OCO3)SCC(=O)N2 (configuration not stated),-1.3%,29.3%,-5.8,4.3%
C[C@@H](N)Cc1cnc[nH]1,/,-24.3%,-5.9&-1.4,6.0%
CC(C)(C)C(=O)Nc1ccc(S(=O)(=O)N2CC3CC(C2)c2cccc(=O)n2C3)cc1 (configuration not stated),-1.1%,-2.0%,/,-1.6%
O=C1NC(=O)N(c2ccc(Br)cc2)C(=O)/C1=C/c1ccsc1,5.2%,-5.2%,-0.4,-3.6%
COc1ccc(-n2c(O)c(/C=C/C=Nc3ccccc3)c(=O)[nH]c2=O)cc1,2.8%,?,-3.5,?
COc1ccc(C(=O)C2CN(C)CC2c2ccc(Cl)cc2)cc1 (configuration not stated),-0.1%,-2.9%,0.7,-1.6%
Cc1ccccc1CN1CCN(C(=O)Cc2ccccc2)CC1,1.2%,3.4%,4.1,1.4%
COC1=C(C)C(=O)O[C@]12C(=O)C(C)=C1CCCCN3[C@H]([C@@H]4C[C@H](C)C(=O)O4)CC[C@]132,/,9.0%,/,0.1%
Cc1cc(=O)oc2cc(OCC(=O)N3C[C@H]4C[C@@H](C3)c3cccc(=O)n3C4)ccc12,-2.2%,-9.4%,/,1.0%
Cn1c(O)c(C=Nc2ccc3c(c2)CCC3)c(=O)n(C)c1=O,-14.9%,2.0%,8.0,0.0%
CCOc1ccc(CN2CCN(C(=O)Cc3ccccc3)CC2)cc1,6.3%,-7.2%,/,1.1%
Cc1cc(/C=C2\C(=O)NC(=O)N(Cc3ccco3)C2=O)c(C)n1-c1ccc(O)cc1,-3.3%,-25.4%,-5.9,?

High-throughput results as filed in PubChem BioAssay.
